# Calb FLC = affects C. albicans growth with fluconazole. C. albicans CaCi-2 (fluconazole-resistant clinical isolate) + fluconazole, Alamar Blue growth, 48 h. growth inhibition, % (test concentration not listed). 300,000 tested, 0.57% active. AID 1979;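 active = most replicates above 75%; inconclusive = exactly half above 75%; inactive = most below 75%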;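 note: all wells also contain fluconazole at 8 µg/ml as a sub-toxic cotreatment; 0% = median of DMSO wells and 100% = median of geldanamycin control wells; wells of about 8 µL received 7.5 nL stock; the first replicate is given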
# Beta2AR agonist = human beta-2 adrenergic receptor agonism by FAP; P07550; Am2.2-beta2AR cells, FAP receptor internalization, flow cytometry; reference of the scale not given here; response, % (test concentration not listed); 340,000 tested, 0.43% active;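 active = response above a set limit, near 3 SD of response in nonfluorescent compounds, cut at about 42% in these data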;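 note: stock transfer was 100 nL into about 11 µL; a reference agonist was the positive control; negative values mostly stem from fluorescent compounds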
# Target sequence (P07550 whole entry, looked up): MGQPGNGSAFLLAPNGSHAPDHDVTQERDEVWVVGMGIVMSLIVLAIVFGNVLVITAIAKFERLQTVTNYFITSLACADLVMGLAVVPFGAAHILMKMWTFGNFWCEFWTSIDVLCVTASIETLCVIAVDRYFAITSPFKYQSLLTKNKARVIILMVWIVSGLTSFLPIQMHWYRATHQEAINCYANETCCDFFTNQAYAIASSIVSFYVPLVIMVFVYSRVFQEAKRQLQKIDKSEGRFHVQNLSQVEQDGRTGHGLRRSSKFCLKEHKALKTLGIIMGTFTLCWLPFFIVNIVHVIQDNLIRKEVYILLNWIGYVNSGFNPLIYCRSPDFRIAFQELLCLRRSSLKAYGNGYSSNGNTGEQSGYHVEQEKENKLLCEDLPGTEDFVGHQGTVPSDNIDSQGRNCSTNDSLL
# A1 inh = inhibitors of the anti-apoptotic protein A1, read as caspase activation; MEF A1-2A-BIM cells, Caspase-Glo 3/7 luminescence, 3 h; percent of clofoctol response, vehicle zero; 330,000 tested, 0.066% active; caspase activation, % (concentration not given with the values);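 active = over half of replicate activation scores above 10%, or exactly half above 10 with the replicate mean above 10; inconclusive = replicate mean below 10 yet half the replicates above 10; inactive = over half of replicates below 10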;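 note: wells of about 30 µL received 50 nL stock; many hits fall short of the cut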
# UCH37 inh = inhibitors of human deubiquitinating enzyme UCH37; purified proteasome/UCH37, Ub-AMC cleavage fluorescence; Q9Y5K5; 330,000 tested, 0.33% active; inhibition, % (no concentration beside the values); AID 588478;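 active = mean of two replicates above 20%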;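 note: 0% = compound-free wells with enzyme and 100% = wells lacking proteasome; stock transfer was 100 nL into about 20 µL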
# Target sequence (Q9Y5K5 whole entry, looked up): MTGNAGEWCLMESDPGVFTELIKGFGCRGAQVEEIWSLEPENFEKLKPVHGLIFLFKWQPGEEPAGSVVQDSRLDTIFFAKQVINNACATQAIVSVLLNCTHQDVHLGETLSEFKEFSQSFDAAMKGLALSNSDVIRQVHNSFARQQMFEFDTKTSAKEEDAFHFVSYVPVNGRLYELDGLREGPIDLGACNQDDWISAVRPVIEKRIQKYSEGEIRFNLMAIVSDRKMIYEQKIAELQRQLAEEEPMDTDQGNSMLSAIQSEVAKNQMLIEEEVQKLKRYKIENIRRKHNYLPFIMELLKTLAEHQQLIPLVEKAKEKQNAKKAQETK
#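 Signal – fluorescence, ex 355 nm, em 460 nm · System – Proteasome-bound UCH37 · Input – 0.15 nM proteasome as dispensed · Timing – 30 min preincubation with enzyme, 25 min cleavage at room temperature · Read-out basis – percent inhibition of cleavage signal versus uninhibited and no-proteasome wells · Medium – Tris-HCl pH 7.4 with ATP-MgCl2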
# LANA-H2A inh = blocks KSHV LANA binding to histone H2A/H2B; inhibition, % (concentration not given with the values); Q9QR71; AID 2629; cell-free LANA-H2A/H2B peptide, fluorescence polarization; 320,000 tested, 0.6% active; in the data active = inhibition mostly above about 10%, no sharp cut-off; inactive = mostly below about 6.7%;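 note: stock transfer was 7.5 nL into about 10 µL; 0% = median of vehicle wells and 100% = median of positive control wells; one replicate is shown; the record names a cut of 25% in any replicate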
# T cruzi inh = blocks replication of Trypanosoma cruzi | T. cruzi beta-gal in NIH3T3, luminescence, 90 h | inhibition, % (test concentration not listed) | 300,000 tested, 1.4% active | AID 1885;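 active = mean inhibition across valid replicates above about 55%, limit read from the data; inconclusive = mean below that limit but half or more replicates reach it; inactive = mean below it, under half of replicates reach it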;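 note: signal also drops with host cell toxicity which is not excluded here; 0% = plate median of DMSO wells and 100% = zero luminescence signal; higher percent means less beta-gal luminescence so fewer parasites; stock transfer was 50 nL into about 50 µL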
# RanGTP-Impb inh = inhibitors of RanGTP-importin-beta interaction, primary screen, biochemical, FRET, CFP-Ran, YFP-importin-beta, homogeneous. cell-free CFP-Ran/YFP-importin-beta FRET ratio. inhibition, % (no concentration beside the values). 300,000 tested, 1.1% active. AID 2216;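 active = most replicates above 15%; inconclusive = exactly half above 15%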;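 note: 0% = DMSO wells and 100% = Ran loaded with GDP instead of GTP; wells of about 40 µL received 100 nL stock; the first replicate is given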
# Beta cell apopt = blocks beta cell apoptosis | 300,000 tested, 0.8% active | AID 435005 | protection from apoptosis, % (concentration not given with the values) | INS-1E cytokine-induced death, ATP luminescence, 48 h; percent of positive-control rescue, neutral wells zero;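 active = all replicates at 75% or more, or half of them and the mean; inconclusive = half reach 75% but not the mean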;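 note: 0% = cytokine-treated negative control wells and 100% = positive control rescue; higher means more ATP so stronger rescue from cytokine killing; wells of about 40 µL received 100 nL stock; the first replicate is given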
# Starred values were filed as active, the others as inactive; ? = inconclusive; . = not tested or not shown. An unsorted share of the library. Share with any hit: about 4.3%.
# Values run as follows: Calb FLC	Beta2AR agonist	A1 inh	UCH37 inh	LANA-H2A inh	T cruzi inh	RanGTP-Impb inh	Beta cell apopt
> Cc1cc(O)c(C=O)c2c1C(=O)Oc1c(CO)c(O)c3c(c1O2)C(O)OC3=O (stereo not given)
 : .	1	0.8	.	-1.5	.	.	-5
> Clc1ccccc1-c1ncnc2ccc(Br)cc12
 : 8	96*	-0.1	1.2	6.7	11	-0.4	-1
> Cc1ccc(-c2nn(C)c(=O)c3ccccc23)cc1CNC(=O)CSc1nc2ccccc2o1
 : -1	1	-0.8	4.4	1.4	-7	2.2	2
> CC(C)C(NC(=O)OC(C)(C)C)C(=O)NC(CCC(=O)OCc1ccccc1)C(N)=O (stereo not given)
 : 0	-4	0.3	1.4	-2.8	-9	0.3	-7
> COc1cc(NC(=O)c2ccccc2)ccc1NC(=O)Cc1ccccc1
 : -11	10	-0.3	4.2	3.1	-8	-3.4	.
> COc1ccc(C(=O)NC2CCCCCC2)cc1OC1CCN(C(C)=O)CC1
 : -8	-3	0.9	4.2	0.6	1	-2.5	-2
> O=C(Nc1ccccc1)c1ccccc1N=Cc1ccccc1O
 : -8	7	-3.4	-262	-1.2	-9	-3.2	-5
> Oc1ccccc1/C=N/n1c(-c2cccs2)n[nH]c1=S
 : 0	4	-0.2	.	-0.3	0	-0.9	-8
> O=[N+]([O-])c1ccccc1/C=C\C=N\N1CCN(c2ccccc2)CC1
 : -33	-1	0.2	.	-0.1	6	-2.3	3
> O=C(NC1CCCCC1)Oc1cccc2ccccc12
 : -5	-1	0.3	4.0	2.1	-14	3.2	.
> CCc1ncc(C(O)c2cccc(OC)c2OC)n1C (stereo not given)
 : -4	3	-0.4	3.9	0.5	-23	?	-2
> O=C(CN(Cc1ccccc1)S(=O)(=O)c1ccccc1)N/N=C/c1ccc2c(c1)OCO2
 : -19	-3	-0.5	.	-0.2	13	-5.3	-1
> Cn1c(SCC(=O)O)nnc1-c1cccc(NC(=O)c2cccc3ccccc23)c1
 : -1	1	0.1	5.0	3.2	-10	6.6	-1
> CSc1nnc(Nc2ccccc2C)s1
 : -5	-1	-3.8	2.9	-0.8	-8	1.4	-3
> CC1CC(C)(C)NC(=S)N1CCC(=O)N1c2ccccc2CC1C (stereo not given)
 : 11	-2	-0.7	-1.3	-3.1	1	2.0	-11
> CN(C)CCCn1c(=O)n(C2CCCCC2)c(=O)c2c3c(sc21)CCCCC3
 : -15	2	-0.3	2.5	2.8	41	3.1	22
> CCN(CC)S(=O)(=O)c1cccc(C(=O)OCC(=O)NCCN2C(=O)CSC2=O)c1
 : .	-1	-0.7	5.3	-1.9	.	.	3
> CCOc1ccccc1C(=O)OCC(=O)Nc1cc(Cl)ccc1Oc1ccccc1
 : -12	12	1.2	1.4	5.3	3	0.0	0
> Cc1cccc(NC(=S)NNC(=S)NCc2ccccc2)c1
 : 14	3	-0.2	4.2	0.2	-6	4.1	0
> Cc1cc(C(=O)Nc2cccc(C)c2C)c2ccccc2n1
 : 8	1	0.7	6.7	1.6	-5	1.6	1
> O=C(CCn1cccn1)Nc1ccc2c(c1)OCCO2
 : 20	5	0.1	2.8	4.0	-13	-1.6	-1
> Cc1cc(C)n(-c2nc3ccccc3s2)n1
 : -23	4	-4.0	2.3	1.0	-17	1.4	-5
> COc1ccc(S(=O)(=O)N2CCCCCC2)cc1C(=O)N(C)CC(=O)Nc1ccccc1Br
 : -10	-1	1.6	-0.2	-2.5	8	.	1
> CN(C(=O)COC(=O)CNC(=O)c1sc2ccccc2c1Cl)C1CCS(=O)(=O)C1 (stereo not given)
 : .	4	0.2	3.0	-1.9	.	.	1
> O=C(NC(=S)Nc1sc2c(c1C(=O)O)CCCC2)c1ccccc1
 : 7	5	0.2	.	0.9	-6	-3.9	-4
> O=C(CCCC(=O)NCc1ccccc1)NCc1ccccc1
 : -1	-1	0.1	4.3	-1.3	-11	3.2	0
> Cc1sc2nc(SCC(=O)NCc3ccco3)n(C)c(=O)c2c1C
 : 2	7	1.4	-1.1	-2.2	1	0.1	-2
> O=C(Nc1ccccc1C(F)(F)F)N1CCN(C(c2ccccc2)c2ccccc2)CC1
 : 33	0	-0.1	-0.4	4.5	4	2.2	2
> CN(C)S(=O)(=O)c1cc(NC(=O)CN2CCN(c3ccccc3O)CC2)ccc1Cl
 : 9	-10	0.8	2.2	-0.2	.	.	2
> CC(Oc1ccccc1)C(=O)OCC(=O)Nc1ccc2c(c1)OCO2 (stereo not given)
 : .	-4	-0.5	-1.5	-0.7	.	.	-1
> Cc1cc(C(=O)NCC(=O)OCC(=O)N2CCCCCC2)ccc1[N+](=O)[O-]
 : 40	-2	0.1	5.9	-11	-15	3.7	-2
> CC(=O)Nc1ccc(Sc2ccccc2C(=O)O)c(C(=O)O)c1
 : 10	12	0.2	1.2	-8.3	-5	0.2	9
> O=C(CSc1nnc(-c2ccc(O)cc2)n1Cc1ccco1)c1ccccc1
 : -1	-1	0.8	0.7	3.8	-6	0.3	-4
> CN(Cc1ccc(C(F)(F)F)cc1)C(=O)c1ccc2ccccc2n1
 : -2	2	0.9	3.7	-1.0	4	-2.5	-3
> CCN(CC)CCCNC(=S)N(Cc1ccco1)Cc1cc2cc3c(cc2[nH]c1=O)OCCO3
 : 26	.	-0.8	-51	-1.7	-11	4.4	-12
> COc1cc([N+](=O)[O-])ccc1NC(=O)NNC(=O)C(C)Oc1ccc(F)cc1F (stereo not given)
 : -6	2	-0.1	8.0	-0.3	-6	3.4	-1
> COc1ccc(NC(=O)N2CCCC2C(=O)Nc2ccc(C)cc2)cc1 (stereo not given)
 : 3	1	-0.4	-0.2	-2.0	-13	-0.2	-2
> O=C(NCCN1C(=O)S/C(=C\c2cccnc2)C1=O)c1ccc([N+](=O)[O-])s1
 : -2	3	-0.2	6.5	0.7	35	-0.7	.
> CCN(CC)C(=O)Cn1cc(C(=O)C(=O)NCCc2ccccc2)c2ccccc21
 : 1	-2	0.2	4.2	-1.2	17	4.4	-9
> Cc1ccc(/C=N/NC(=O)c2nnn(-c3nonc3N)c2CSc2ccccc2)o1
 : -11	2	2.3	.	7.7	2	6.6	-5
> Cc1c(/C=N/Nc2ccc([N+](=O)[O-])cn2)c2ccccc2n1Cc1ccccc1
 : 1	-65	-0.2	.	4.9	?	-1.8	31
> Cc1cc(C)n2c(SCC(=O)Nc3ccccc3C#N)nnc2n1
 : .	11	0.1	-5.8	-1.9	.	.	-1
> c1ccc(-c2nnc(CSc3ccc4c(c3)OCCO4)o2)cc1
 : -12	-7	-0.8	0.0	-6.9	-2	1.5	?
> CCOc1cc(C)c(Cl)cc1S(=O)(=O)n1ccnc1
 : 7	-1	1.2	2.5	-1.8	72*	3.0	-4
> CCOc1ccc(Oc2ccc(S(=O)(=O)N3CCOCC3)cc2NC(=O)CCNC(C)=O)cc1
 : 0	-3	-0.3	3.8	0.2	-3	3.2	1
> Nc1nc2c(c(=O)[nH]1)CN(Cc1ccccc1)CC2
 : -2	-5	-0.8	-1.0	-2.1	16	-0.8	3
> COc1ccc(NC(=O)c2c(SC)nsc2SC)cc1
 : -1	-6	0.0	0.4	0.3	3	1.2	-1
> COc1ccc(C(=O)OC(C)CN2CCN(C)CC2)cc1OC (stereo not given)
 : 0	3	0.9	1.6	3.3	38	1.0	12
> O=C(c1ccco1)N1CCCSC1=Nc1ccccc1
 : 1	-3	-0.1	-2.7	-1.7	11	2.0	1
> O=C(Cn1ncc2c([nH]c3ccccc32)c1=O)N1CCN(c2ccccc2F)CC1
 : 1	9	3.1	-0.4	1.8	-10	?	.
> Cn1c(-c2ccc3ccccc3n2)nc2cnccc21
 : 34	-9	-3.9	-8.2	4.7	-16	-0.1	1
> COc1cccc(NC(=O)Nc2cc(C)ccc2OC)c1
 : 20	3	-1.3	0.1	-6.7	20	-1.6	4
> O=C(CNC(=O)c1cccs1)NCC(=O)OCC(=O)c1ccccc1
 : 5	3	0.5	1.9	2.9	2	5.0	-7
> CCOC(=O)N1CCN(S(=O)(=O)c2cc(Cl)ccc2Cl)CC1
 : -3	-7	0.2	-0.3	10	6	-0.1	-1
> CC(C)NC(=O)Nc1ccc2c(c1)C(=O)N([C@H](C)CO)C[C@H](C)[C@@H](CN(C)C(=O)Nc1ccc3c(c1)OCO3)O2
 : .	-2	-0.3	1.5	1.7	.	.	0
> CCc1nnc(NC(=O)c2ccc(-c3ccccc3Cl)o2)s1
 : 13	4	-6.7	-14	-2.1	17	3.8	.
> COc1ccc(CNS(=O)(=O)c2ccc(-c3cc(C)no3)cc2)cc1
 : 16	-17	-0.8	2.2	7.4	-3	6.1	-4
> CCn1c(SCC(=O)Nc2sc(C)c(C)c2C#N)nnc1C1CC1
 : -1	1	0.0	5.4	1.1	1	-2.1	-3
> CCOc1cc(C(=O)NCc2ccc(-c3nc4ccccc4o3)cc2)cc(OCC)c1OCC
 : 13	-5	0.2	-3.1	13	0	0.5	8
> CCSc1nnc(NC(=O)c2cc(OC)c(OC)c(OC)c2)s1
 : -8	-3	2.2	3.5	2.1	13	0.8	5

# Next section.
# Values run as follows: Calb FLC	Beta2AR agonist	A1 inh	UCH37 inh	LANA-H2A inh	T cruzi inh	RanGTP-Impb inh	Beta cell apopt
> O=C(NC(=S)N1CCCCC1c1cccnc1)c1ccc(Br)cc1 (stereo not given)
 : -3	-1	0.4	1.1	-2.2	16	33*	-3
> O=C(Nc1ncc2c(n1)CC(c1ccco1)CC2=O)c1ccc(Cl)cc1 (stereo not given)
 : 21	-8	-0.3	-4.6	-6.7	11	?	-6
> CC(C)=CCN1CCN(Cc2ccc(N3CCNC3=O)cc2)CC1CCO (stereo not given)
 : 0	-3	0.6	4.6	1.8	-5	3.9	-2
> O=C(Cn1c(-c2cncs2)nc2ccccc21)NCc1ccccc1
 : -8	-3	1.3	2.1	-12	2	2.2	.
> O=C(CSc1ncn[nH]1)Nc1ccc2c(c1)OCCO2
 : 1	-4	0.3	2.5	8.7	6	0.8	-2
> COC(=O)C(C(=O)OC)C(C)C(C(=O)OC)C(=O)OC
 : -12	-2	0.4	1.9	3.8	-10	-1.1	-1
> COc1ccc(-c2ccncc2)cc1OC
 : 11	-2	-1.2	-0.2	-5.7	17	2.5	3
> CCOC(=O)N1CCN(C(=O)C(=O)Nc2ccc3nc4n(c(=O)c3c2)CCCCC4)CC1
 : 2	-5	0.3	4.8	-0.9	4	-3.3	.
> CC(C)CC(NC(N)=O)C(=O)OCC(=O)NC(=O)NC1CCCC1 (stereo not given)
 : -5	3	-0.2	0.5	2.2	2	-2.5	0
> CC(=O)c1ccc(S(=O)(=O)NC2CCCCCCC2)cc1
 : 1	-6	0.6	5.2	0.2	-8	0.8	3
> O=C(OCc1ccccc1)c1cccc(-c2nnc(-c3ccccc3)o2)c1
 : -12	0	-0.3	3.8	2.2	10	-3.8	-4
> COC(=O)c1nn(-c2ccccc2)ccc1=O
 : -4	3	-0.3	1.9	0.8	-16	-1.6	-8
> CCN(Cc1ccccc1)C(=O)CCS(=O)(=O)c1cc2c(cc1Cl)NC(=O)CO2
 : -2	-4	-0.4	4.1	1.2	2	-3.0	-3

# Source: PubChem BioAssay
